# GIRK2 activ: GIRK2 channel activation; HEK293-GIRK2 thallium flux, Thallos fluorescence; hit rate 0.05% among 63,000; calls only for hits at 25 µM; P48051;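 active means among the strongest 0.2% of first-round signals and kept after retests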;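 further: first round at about 10 µM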
# Target sequence (P48051 whole entry, looked up): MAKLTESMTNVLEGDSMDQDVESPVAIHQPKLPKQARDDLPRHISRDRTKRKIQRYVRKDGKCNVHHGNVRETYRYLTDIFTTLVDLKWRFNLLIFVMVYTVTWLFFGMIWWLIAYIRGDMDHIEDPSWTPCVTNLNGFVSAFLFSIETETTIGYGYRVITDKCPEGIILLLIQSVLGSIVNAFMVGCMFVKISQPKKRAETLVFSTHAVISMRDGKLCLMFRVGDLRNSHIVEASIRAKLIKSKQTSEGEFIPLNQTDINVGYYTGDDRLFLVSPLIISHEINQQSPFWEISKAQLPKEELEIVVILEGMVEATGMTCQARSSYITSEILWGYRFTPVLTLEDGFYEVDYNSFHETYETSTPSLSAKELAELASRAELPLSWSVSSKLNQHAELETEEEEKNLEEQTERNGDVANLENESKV
# Calls only; i = inactive; + = active, no number. Only part of the results is shown. The share of hits here may be higher or lower than overall.
GIRK2 activ | compound
i | COc1ccccc1N1CCCn2c1nc1c2c(=O)n(Cc2ccccc2F)c(=O)n1C
i | O=C(CCn1c(=O)[nH]c2ccccc2c1=O)N1CCCCC1
i | Cc1cc(=O)[nH]c(-n2nc(C3CC3)cc2NC(=O)C2CC(=O)N(c3ccccc3)C2)n1 (centres undefined)
i | COc1ccc(-n2nc(-c3nc(-c4cc(OC)c(OC)c(OC)c4)no3)c3ccccc3c2=O)cc1
i | CC(=O)NCc1cc(-c2cccs2)n(C2CCCC2)n1
i | O=S(=O)(C1CC1)N1CCN(c2ccccc2F)CC1
i | CCOCCCn1c(C)cn2c3c(=O)n(Cc4ccc(Cl)cc4Cl)c(=O)n(C)c3nc12
i | Cc1cc(C)c(NC(=O)Cn2nc3n(CCC(=O)NC(C)C)c(=O)c4ccccc4n3c2=O)c(C)c1
i | Cc1nc(NC(=O)c2nnn(-c3nccs3)c2C)sc1C(=O)N(C)C
i | COCc1ccc(C(=O)Nc2ccnc3ccc(Cl)cc23)o1
i | CCOCC(=O)Nc1cc(C(C)(C)C)nn1CCO
i | COc1ccc(-n2nnc(C(=O)Nc3ccc(C(C)=O)cc3)n2)cc1
i | COc1ccc(-c2csc3c(=O)n(CC(=O)Nc4ccc5c(c4)OCO5)cnc23)cc1
i | COc1ccc2c(=O)c3c(oc2c1)C(=O)N(c1nccs1)C3c1ccccc1OC (centres undefined)
i | O=C(C1CCCC1)N1CC(c2nc(-c3ncccn3)no2)C1
i | CCN(Cc1cnc2ccccn12)C(=O)C1(c2cccs2)CCCC1
i | Cc1ccc(NC(=O)c2c(O)c3c(C)c(C(=O)N(C)C)sc3[nH]c2=O)cc1Cl
i | CC1(C)OCC2(CO1)CN(C(=O)C13CC4CC(CC(C4)C1)C3)C2
i | O=C(NCc1ccccc1)N1CC(c2nc(-c3cccs3)no2)C1
i | COc1ccc(C)cc1NCCn1c(C)cn2c3c(=O)[nH]c(=O)n(C)c3nc12
i | O=C(Cc1ccc(F)cc1)N1CC(c2nc3ccccc3[nH]2)C1
i | Cc1cc2c(SCC(=O)NC3CCCC3)ncnc2s1
i | CCOc1ccc(C(=O)Nc2nonc2-c2ccc(Cl)cc2)cc1
i | COCCCn1cnc2c(-c3ccccc3)cn(CC(=O)NCc3cccc(OC)c3OC)c2c1=O
i | CCOC(=O)N1CCN(Cc2cc(=O)oc3cc4c(cc23)CCCC4)CC1
i | CCCCCC(O)CC(=O)O[C@@H]1[C@@H](O)[C@H](OC(CCCCCCCCCCCC(O)CO[C@@H]2O[C@H](COC(C)=O)[C@@H](O)[C@H](O)[C@H]2O)CC(=O)O)O[C@H](COC(C)=O)[C@H]1O (some centres undefined)
i | CCOc1ccc(NC(=O)CSC2=NC3(CCN(CC)CC3)N=C2c2ccc(Cl)cc2)cc1
i | COc1ccc(C2NC(=O)NC(O)(C(F)(F)F)C2C(C)=O)cc1 (centres undefined)
i | COc1ccc(C)cc1N1CCn2c1nc1c2c(=O)n(Cc2ccccc2)c(=O)n1C
i | COc1ccccc1NC(=O)N1CCC(CNC(=O)c2cc(-c3ccc(F)cc3)nn2C)CC1

# Ordered by SMILES length (ascending): some entries from above.
GIRK2 activ | compound
i | CC(=O)NCc1cc(-c2cccs2)n(C2CCCC2)n1
i | COc1ccc(C)cc1NCCn1c(C)cn2c3c(=O)[nH]c(=O)n(C)c3nc12
i | COCCCn1cnc2c(-c3ccccc3)cn(CC(=O)NCc3cccc(OC)c3OC)c2c1=O

# (next part)
GIRK2 activ | compound
i | O=C(NCCc1ccoc1)c1ccc(Cl)c(Cl)c1
i | CCN1CCc2c(sc(NC(C)=O)c2-c2nc3ccccc3s2)C1
i | COc1ccc(-c2cc3c(SCC(=O)NC4CCCC4)nccn3n2)cc1
i | CC(=O)c1cccc(S(=O)(=O)NCC2CCS(=O)(=O)C2)c1 (centres undefined)
i | Nc1ccc(-c2nnc(Nc3ccccc3)s2)cc1
i | Cc1ccc(N2C(=O)c3ccc(C(=O)N4CCN(C(=O)c5ccco5)CC4)cc3C2=O)cc1
i | C=C(C)COc1ccc2oc(-c3ccc(OC)cc3)c(C(=O)O)c2c1
i | COc1cc(NC(=O)Cn2cnc3c(oc4ccccc43)c2=O)cc(OC)c1
i | O=C(CN1C(=O)CCC1=O)N1CCC(CSC2=NCCS2)CC1
i | O=C(Nc1nc2ccc(F)cc2s1)c1cccc(S(=O)(=O)N2CCCC2)c1
i | Cc1noc(C2CN(C(=O)Nc3ccc(C(F)(F)F)cc3)C2)n1
i | CCCCCN1C(=O)CC(C)Nc2ccccc21 (centres undefined)
i | Cc1ccc(-c2nnc(Cn3c(SCC(=O)O)nc4ccccc43)o2)cc1
i | COc1ccccc1N1CCN(CC(=O)N2CCn3c2nc2ccccc23)C1=O
i | O=C(c1ccc(Cl)c(S(=O)(=O)N2CCCC2)c1)N1CCc2ccccc21
i | COC(=O)c1ccc(S(=O)(=O)N2CCc3nc(NC(=O)c4ccoc4)sc3C2)cc1
i | O=Cc1c(O)ccc2c(=O)c(-c3ccccc3)coc12
i | O=C(c1ccc2nsnc2c1)N1CC(c2nc(-c3ncccn3)no2)C1
i | Cc1cccc(Cn2c(C3CC(=O)N(C(C)(C)C)C3)nc3ccccc32)c1 (centres undefined)
i | Cc1ccc(NS(=O)(=O)c2n[nH]c(C)c2C(=O)NCCc2cccs2)cc1
i | Cc1cc(C)n(-c2ccc(C(=O)NCCC(c3ccccc3)c3ccccc3)nn2)n1
i | O=C(c1cc(=O)c2ccccc2o1)N1CC(c2nc3ccccc3[nH]2)C1
i | COC(=O)c1sc2cccc(F)c2c1S(=O)(=O)Nc1ccc(F)c(Cl)c1
i | COc1ccc(-c2noc(CN3C(=O)COc4cc(C)ccc43)n2)cc1OC
i | CCCCn1c(=O)c2ccccc2n(Cc2nc(-c3ccc(Cl)c(F)c3)no2)c1=O
i | COCCNC(=O)Cc1ccc(NC(=O)c2cn(C)nc2OC)cc1
i | COc1ccccc1COc1cc(NC(=O)COc2ccccc2Cl)ncn1
i | Cc1cc(NS(=O)(=O)c2ccc(N/C=C(/C#N)c3nc(-c4ccc(Cl)cc4)cs3)cc2)no1
i | CC(C)(Oc1ccc(Cl)cc1)C(=O)N1CCC(COCc2ccc(F)cc2)CC1
i | Cc1nc(NC(=O)CSc2nnc(CCc3nc4ccccc4s3)o2)sc1C
i | CCOC(=O)c1ccc(Oc2coc3cc(OC(=O)N4CCOCC4)ccc3c2=O)cc1
i | CC(C)CCn1c(=O)c2c(nc3n2CCCN3CCc2ccccc2)n(C)c1=O
i | CCOCCn1c(=O)c2c(nc3n(CCOCC)c(C)cn23)n(C)c1=O
i | C(=C\c1ccccc1)/CSc1nnc(-c2ccccc2)o1
i | COCCN1CCC(NC(=O)c2ccc(Cl)cc2Cl)CC1
i | Cc1cc(C(=O)N2CCC(Cn3c(C)nc4ccccc43)CC2)no1
i | O=C(COc1ccccc1)NCC(=O)Nc1nccs1
i | Cc1cc(C)c2sc(NC(=O)Cc3ccc(Cl)cc3)nc2n1
+ | CCN(CC)c1ccc(-c2noc(CN3CCCCC3C)n2)cn1 (centres undefined)
i | COc1cc(NC(=O)CCSc2ccccc2)ccc1N1CCCC1=O
i | CSc1ccccc1CN1CCC(CNC(=O)C(=O)Nc2cccc(N3CCCC3=O)c2)CC1
i | COc1ccc(-c2noc(CSc3nc4cc5c(cc4c(=O)n3C)OCO5)n2)cc1OC
i | O=C(NCC1CCN(S(=O)(=O)c2cccnc2)CC1)C(=O)Nc1ccccc1Cl
i | Cc1csc(C(=O)N2CCC3(CC2)OCCS3)c1
i | O=C(CSc1ncnc2nc(N3CCc4ccccc4C3)sc12)NCc1ccc(Cl)cc1
i | NC(=O)c1c(NC(=O)C2CCN(S(=O)(=O)c3ccc(F)cc3)CC2)sc2c1CCC2
i | CCOC(=O)CSc1nnc(N2CCN(c3ccccc3OC)CC2)s1
i | O=C(CCCSc1ccc(NC(=O)c2ccc(F)cc2)nn1)NCc1cccnc1
i | Cc1ccccc1-c1csc2c(=O)n(CCOc3ccccc3)cnc12
i | CS(=O)(=O)c1cccc2sc(N3CCN(C(=O)c4ccc([N+](=O)[O-])o4)CC3)nc12
i | CCOC(=O)N1CCC(NC(=O)c2coc(NC(=O)c3ccccc3)n2)CC1
i | COC(=O)Cn1c(=O)c2c(nc3n2CCCN3c2cc(C)ccc2OC)n(C)c1=O
i | O=C(Cn1ccn2nc(-c3ccccc3)cc2c1=O)NCc1ccc(Cl)cc1
i | O=C(CSc1ccc(F)cc1)N1CCC(Oc2ccc(C(F)(F)F)cn2)CC1
i | COc1ccc(-n2c(SCC(=O)Nc3ncn[nH]3)nc3ccccc3c2=O)cc1OC
i | O=C(CCCCCn1c(=S)[nH]c2ccc(Br)cc2c1=O)NCCc1ccccc1
i | O=C(c1cccnc1)N1CCN(CC(F)(F)F)CC1
i | COc1ccc(/C=C2\Oc3cc(OC(=O)c4c(OC)cccc4OC)ccc3C2=O)c(OC)c1OC
i | CCc1c(C)nc(SCc2nc(-c3ccc(Br)cc3)no2)[nH]c1=O
i | Cc1cc(C)cc(C(=O)NC2CCN(C(=O)c3cn(-c4ccc(C)c(C)c4)nn3)CC2)c1

# Marked active in GIRK2 activ, of those listed so far:
GIRK2 activ | compound
+ | CCN(CC)c1ccc(-c2noc(CN3CCCCC3C)n2)cn1 (centres undefined)

# Exported as comma-separated lines: part of the list above
Structure,GIRK2 activ
Cc1csc(C(=O)N2CCC3(CC2)OCCS3)c1,i
O=C(CSc1ncnc2nc(N3CCc4ccccc4C3)sc12)NCc1ccc(Cl)cc1,i

# The listing continues:
GIRK2 activ | compound
i | CCn1c(SCC(=O)Nc2ccccc2OC)nc2c(-c3ccc(C)cc3)csc2c1=O
i | Cc1ccccc1-n1c(C)c(C)n2c3c(=O)[nH]c(=O)n(C)c3nc12
i | CCOc1ccc(C(=O)N2CCC(CSc3nc(C)cs3)CC2)cc1
i | O=C(C1CC1)N1CCc2ccc(NS(=O)(=O)/C=C/c3ccccc3)cc2C1
i | CS(=O)(=O)N1CCCc2ccc(NC(=O)NCc3cccs3)cc21
i | O=C(Nc1ccccc1)c1csc2nc(-c3ccc(F)cc3)cn12
i | Cc1ccc(C(=O)NCC(Cc2cccc(F)c2)N2CCNC2=O)cc1 (centres undefined)
i | COc1ccc(C(=O)Nc2nnc(-c3cc(C)ccc3C)o2)cc1OC
i | O=c1cc(-c2ccc(Cl)cc2)[nH]c2ccc([N+](=O)[O-])cc12
i | CCCS(=O)(=O)N1CCc2ccc(NC(=O)Nc3ccccc3Cl)cc2C1
i | CCOc1ccc(-c2noc(Cc3nc(-c4cccc(OC)c4)cs3)n2)cc1
i | O=C(NCCOc1ccc(-c2ccc(F)cc2)nn1)C1c2ccccc2Oc2ccccc21
i | O=C(COc1ccc(Cl)cc1)N1CCN(c2ncnc3c2nnn3-c2ccccc2)CC1
i | Cc1nc2n(c(=O)c1C)C(CC(=O)N1CCCC(c3nnc(-c4ccccc4F)s3)C1)CS2 (centres undefined)
i | CCN1CCN(C(=O)c2cc3c(=O)n(C)c(=O)n(C)c3n2CCOC)CC1
i | O=C(NCC1CN(c2ccccc2)C(=O)O1)c1cnn2c1OCCC2 (centres undefined)
i | COc1ccc(-c2cc(N3CCCC(C(=O)NCCCn4ccnc4)C3)ncn2)cc1 (centres undefined)
i | CCOCCN1N=C(c2ccccc2)Cn2c1nc1c2c(=O)n(C)c(=O)n1C
i | Cc1ccc(N2CCn3c2nn(CC(=O)Nc2cc(C)ccc2C)c(=O)c3=O)cc1
i | Cn1nc(-c2ccc(F)cc2)cc1C(=O)Nc1ccc2c(c1)C(=O)NCC2
i | Cn1c(=NC(=O)CCCS(=O)(=O)Cc2ccccc2)sc2cc3c(cc21)OCCO3
i | COc1ccc(N2CCCS2(=O)=O)cc1NS(=O)(=O)c1ccc(C)cc1
i | O=C(CCc1ccc(O)c(O)c1)N[C@@H](CC(=O)OCc1ccccc1)C(=O)OCc1ccccc1
i | Cn1cc(C(=O)N2CCc3nc(NC(=O)c4ccco4)sc3C2)nn1
i | O=C(c1cccs1)c1ccc(CNC(=O)C2COc3ccccc3O2)s1 (centres undefined)
i | CCOc1ccc(C(=O)N2CCN(Cc3nnnn3-c3ccccc3)CC2)cc1OCC
i | Cc1ccc2[nH]c3c(=O)n(CC(=O)NCc4ccccc4F)cnc3c2c1
i | CCOc1ccccc1NC(=O)Nc1ccc(Cl)c(N2CCCS2(=O)=O)c1
i | O=C(NCC1CCN(Cc2ccsc2)CC1)C(=O)Nc1ccc2c(c1)OCO2
i | Cc1cc(NC(=O)Cc2ccc3c(c2)OCO3)n(-c2nc3ccccc3s2)n1
i | Cc1ccc(Cl)cc1N1CCN(c2ccc(S(=O)(=O)C3CCCCC3)nn2)CC1
i | Cc1noc(C2(NC(=O)C(C)Oc3ccccc3)CCCCC2)n1 (centres undefined)
i | CC(O)CN1CCN(CC(=O)Nc2cccnc2)CC1 (centres undefined)
i | Cc1cc(C(O)CCNC(=O)Cn2c(=O)oc3ccccc32)c(C)o1 (centres undefined)
i | C=CCn1c(SCC(=O)Nc2ccc(C(=O)OCC)cc2)nnc1-c1ccc(N)cc1
i | Cc1ccc(-n2nnc(C(=O)Nc3ccccc3O)n2)cc1
i | COC(=O)c1ccc(NC(=O)CSc2nnc(N3CCN(c4ccccc4OC)CC3)s2)cc1
i | CN(C)C(CNC(=O)C(=O)Nc1ccc2c(c1)N(S(C)(=O)=O)CCC2)c1ccc2c(c1)CCO2 (centres undefined)
i | CCCc1nnsc1C(=O)NCC(c1cccs1)S(=O)(=O)c1ccc(C)cc1 (centres undefined)
i | COc1cccc(OC)c1C(=O)Nc1sc2c(c1-c1nc3ccccc3s1)CCN(C(C)=O)C2
